From PubChem BioAssay
nsP2pro primary = Primary qHTS for inhibitors of NSP2Pro chikungunya virus (CHIKV); Potency, µM (doses to about 24.9 µM), without a hit: at the highest dose activity change, negative = inhibition, actives largely listed as inhibitors; FRET peptide cleavage, nsP2pro, fluorescence 1 h; actives 1.1% (n = 31,000); AID 1964107, 2024; Polyprotein P1234 (Chikungunya virus (strain S27-African prototype)), Q8JUX6; active means well fitted inhibition curve with a large enough effect; inconclusive means small, poorly fitted or top-dose-only effect; inactive means no such curve, though single readings can be large or run the other way; further: nearly all actives have a fitted effect of over 60% in size; a reference inhibitor and vehicle were the controls
Target sequence (Q8JUX6 whole entry, looked up): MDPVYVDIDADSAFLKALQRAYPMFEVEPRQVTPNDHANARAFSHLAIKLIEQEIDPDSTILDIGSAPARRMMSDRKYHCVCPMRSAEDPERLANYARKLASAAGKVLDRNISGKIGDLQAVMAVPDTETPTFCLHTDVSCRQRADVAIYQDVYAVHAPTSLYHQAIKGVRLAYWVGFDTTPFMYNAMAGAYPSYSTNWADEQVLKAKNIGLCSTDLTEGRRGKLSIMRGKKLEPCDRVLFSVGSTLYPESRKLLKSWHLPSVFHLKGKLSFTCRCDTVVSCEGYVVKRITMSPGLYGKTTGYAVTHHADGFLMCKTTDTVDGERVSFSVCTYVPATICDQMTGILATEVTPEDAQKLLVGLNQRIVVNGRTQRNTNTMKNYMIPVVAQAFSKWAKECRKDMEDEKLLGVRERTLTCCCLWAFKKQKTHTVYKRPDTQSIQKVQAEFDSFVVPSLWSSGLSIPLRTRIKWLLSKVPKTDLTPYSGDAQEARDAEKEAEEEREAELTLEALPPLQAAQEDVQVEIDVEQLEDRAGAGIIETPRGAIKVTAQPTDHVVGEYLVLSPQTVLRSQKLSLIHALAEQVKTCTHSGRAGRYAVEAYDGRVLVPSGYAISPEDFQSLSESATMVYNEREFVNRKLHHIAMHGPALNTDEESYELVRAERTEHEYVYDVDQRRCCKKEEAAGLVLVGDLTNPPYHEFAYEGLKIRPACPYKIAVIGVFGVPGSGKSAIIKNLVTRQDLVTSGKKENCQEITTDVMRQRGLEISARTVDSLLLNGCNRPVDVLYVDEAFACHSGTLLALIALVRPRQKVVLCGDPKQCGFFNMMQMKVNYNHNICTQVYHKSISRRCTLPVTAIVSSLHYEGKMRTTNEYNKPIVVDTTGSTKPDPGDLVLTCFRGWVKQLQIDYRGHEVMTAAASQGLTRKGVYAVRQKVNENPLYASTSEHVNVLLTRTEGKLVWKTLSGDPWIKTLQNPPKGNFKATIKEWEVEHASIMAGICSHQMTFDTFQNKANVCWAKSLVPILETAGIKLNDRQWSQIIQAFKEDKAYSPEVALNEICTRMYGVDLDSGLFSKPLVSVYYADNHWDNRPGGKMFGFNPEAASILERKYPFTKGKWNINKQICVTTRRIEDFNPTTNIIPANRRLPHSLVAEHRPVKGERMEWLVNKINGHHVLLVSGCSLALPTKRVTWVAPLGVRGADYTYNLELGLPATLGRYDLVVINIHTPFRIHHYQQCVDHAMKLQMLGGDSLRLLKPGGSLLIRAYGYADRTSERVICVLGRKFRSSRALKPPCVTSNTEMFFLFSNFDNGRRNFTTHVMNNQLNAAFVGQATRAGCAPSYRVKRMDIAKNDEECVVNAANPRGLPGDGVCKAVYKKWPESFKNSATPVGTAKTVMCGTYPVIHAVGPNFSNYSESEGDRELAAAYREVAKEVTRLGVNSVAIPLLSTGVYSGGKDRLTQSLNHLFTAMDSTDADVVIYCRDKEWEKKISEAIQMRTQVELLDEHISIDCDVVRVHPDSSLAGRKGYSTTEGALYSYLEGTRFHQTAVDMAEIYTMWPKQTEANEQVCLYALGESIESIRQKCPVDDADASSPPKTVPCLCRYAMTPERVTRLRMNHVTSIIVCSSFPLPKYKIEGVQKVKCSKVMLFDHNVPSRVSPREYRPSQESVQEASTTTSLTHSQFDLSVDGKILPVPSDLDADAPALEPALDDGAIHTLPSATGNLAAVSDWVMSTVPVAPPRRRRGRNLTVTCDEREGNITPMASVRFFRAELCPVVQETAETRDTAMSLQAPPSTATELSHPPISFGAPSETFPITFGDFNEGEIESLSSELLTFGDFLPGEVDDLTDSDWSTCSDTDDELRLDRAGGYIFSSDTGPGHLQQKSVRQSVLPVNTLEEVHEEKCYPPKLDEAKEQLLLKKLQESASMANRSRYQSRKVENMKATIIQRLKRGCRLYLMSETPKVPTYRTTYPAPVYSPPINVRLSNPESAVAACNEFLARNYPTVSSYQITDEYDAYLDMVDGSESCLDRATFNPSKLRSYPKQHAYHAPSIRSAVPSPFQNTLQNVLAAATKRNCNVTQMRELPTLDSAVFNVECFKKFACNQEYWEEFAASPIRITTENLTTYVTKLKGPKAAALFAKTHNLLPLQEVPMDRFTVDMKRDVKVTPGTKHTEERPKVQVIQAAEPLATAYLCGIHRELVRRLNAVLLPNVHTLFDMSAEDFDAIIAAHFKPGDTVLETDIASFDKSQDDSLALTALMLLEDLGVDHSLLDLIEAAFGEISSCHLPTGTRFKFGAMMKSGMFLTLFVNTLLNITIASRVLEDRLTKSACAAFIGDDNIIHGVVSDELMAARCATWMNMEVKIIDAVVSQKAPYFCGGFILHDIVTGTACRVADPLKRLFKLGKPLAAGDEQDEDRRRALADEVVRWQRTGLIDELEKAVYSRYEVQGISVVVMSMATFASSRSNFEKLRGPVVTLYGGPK
An asterisk follows results filed as active; i = inactive; ? = inconclusive; & = joins results of further samples; [ ] = remark or other dose. On the % scale 0 is the no-effect control and ±100 the full control effect; potency means the concentration at half of the fitted maximal effect. These rows are one share of the data. The share of hits here may be higher or lower than overall.

Structure	nsP2pro primary
O=C(Nc1ccc2c(c1)CCCN2C(=O)c1cccs1)c1ccccc1Cl	-16.3%
Cn1nnnc1SCCNCc1ccccc1OCc1ccccc1F	-22.6%
O=C(O)c1ccnc2cc(C(OCCCN3CCCCC3)c3ccccc3Cl)[nH]c12 (configuration not stated)	17.8%
COC(=O)Nc1nc2ccc(C(=O)c3ccccc3)cc2[nH]1	-6.0%
O=C(NCc1ccc(Cl)cc1)c1cc(-c2ccc(F)cc2)on1	-14.0%
O=C(Nc1ccc(O)cc1)c1cccc(S(=O)(=O)N2CCOCC2)c1	-12.2%
CC1CCC(NC(=O)c2ccc3c(c2)N(Cc2cccc(Cl)c2)C(=O)c2ccccc2S3(=O)=O)CC1 (configuration not stated)	-5.8%
CCOc1ccc(CCNC(=O)Cn2ncc3c([nH]c4ccccc43)c2=O)cc1OCC	-12.7%
C=C(C)C1CCC2(C(=O)OC3OC(COC4OC(CO)C(O)C(O)C4O)C(OC4OC(C)C(O)C(O)C4O)C(O)C3O)CCC3(C(=O)O)C(CCC4C5(C)CCC(=O)C(C)(C)C5CCC43C)C12 (configuration not stated)	25.4%[5.1 µM]
Cc1nn(-c2ccccc2)c2nc(C3CC3)cc(C(=O)Nc3cccc(F)c3)c12	-9.9%
O=c1cc(-c2ccccc2)c2ccc3c(c2o1)CN(Cc1ccccc1)CO3	41.1%
C[C@]12CC[C@H](O[C@@H]3O[C@H](CO)[C@@H](O)[C@H](O)[C@H]3O)CC1=CC[C@@H]1C2CC[C@]2(C)[C@@H](C3=CC(=O)OC3)CC[C@]12O (some centres not stated)	-7.9%[10 µM]
CC1=C2C[C@@]3(C)C(CCC[C@@H]3C)C(O)C2OC1=O (some centres not stated)	9.88µM*
Cc1cnc(C(=O)N[C@H]2CCCCC/C=C\[C@@H]3C[C@@]3(C(=O)NS(=O)(=O)C3CC3)NC(=O)[C@@H]3C[C@@H](Oc4nc5ccccc5c5ccccc45)CN3C2=O)cn1	-11.3%&15.8%
COc1cccc(-n2c(=O)c3c(C)c(C(=O)N(C)C)sc3n(CC(=O)NCCc3ccc(OC)c(OC)c3)c2=O)c1	-8.4%
COCC1CN(C)CC12CCN(S(=O)(=O)Cc1ccc(F)cc1)CC2 (configuration not stated)	-0.5%
Cc1ccc(N2C(=O)CSC23C(=O)N(CC(=O)NC2CCCCC2)c2ccccc23)cc1C (configuration not stated)	-0.8%
Cc1ccccc1OC1=NS(=O)(=O)c2ccccc21	i
COc1ccc(-c2nc(CSc3nnc(C)n4c3cc3oc(C)cc34)c(C)o2)cc1OC	-21.1%
COc1cc(-c2ccc3ncnc(NCc4nc(C)cs4)c3c2)cc(OC)c1OC	3.3%
O=C(CSc1n[nH]c(-c2ccccc2Cl)n1)N1CCN(c2ccccc2)CC1	2.0%
Cc1ccccc1-c1cnc2[nH]cc(CC(=O)N3CCOCC3)c2c1	-0.8%[39.2 µM]
CN(C)c1cc(CC2CC(=O)N(c3ccccc3)C2)ncn1 (configuration not stated)	i
C=C1C[C@]23C[C@H]1CC[C@H]2[C@]1(C)CCC[C@@]2(CO)C(=O)O[C@H]([C@H]21)[C@@H]3O	?
CC1CCN(C(=O)C2(c3ccc(NC(=O)C4CC4)cc3)CCCCC2)CC1	1.6%
Cc1ccc2c(CNCc3ccc(C)o3)c(C(=O)O)n(Cc3ccc(F)cc3)c2c1	-20.7%
Cc1ccccc1C(=O)NCC(=O)OC(C(=O)Nc1cc(C(F)(F)F)ccc1Cl)c1ccccc1 (configuration not stated)	-14.5%
CCC(=O)N[C@@H]1Cc2ccccc2[C@H](c2ccccc2)C1	1.6%
NS(=O)(=O)c1ccc(C(=O)NC(Cc2ccncc2)C2CC(O)C2)cc1 (configuration not stated)	4.3%
COc1ccc(Cl)cc1NS(=O)(=O)c1ccc2c(c1)NC(=O)CC(=O)N2	-17.1%
CC(C)CN(CCCNC(=O)c1cc(=O)[nH]c2ccc(S(=O)(=O)N3CCCC3)cc12)CC(C)C	-19.2%
O=C(Nc1ccn(Cc2c(F)cccc2C(F)(F)F)n1)c1c(F)cccc1F	4.7%[5.1 µM]
CCC1OC(=O)C(C)C(OC2CC(C)(OC)C(O)C(C)O2)C(C)C(OC2OC(C)CC(N(C)C)C2O)C(C)(O)CC(C)C2NC(COCCOC)OC(C2C)C1(C)O (configuration not stated)	21.0%
Cc1nnc(N2CCC(C(=O)NCCc3ccccc3)CC2)c2nn(-c3ccc(Cl)cc3)c(C)c12	-1.3%
Cc1ccc(Cl)cc1-n1c(=O)c2sc3ccccc3c2n(CC(=O)NC2CCCC2)c1=O	-23.4%
CCN1CCN(C(=O)c2cn3cc(-c4cccnc4)sc3n2)CC1	-7.2%[39.2 µM]
Cc1nc(C2CCCN(C(=O)C(C)(C)N)C2)cc(N2CCOCC2)n1 (configuration not stated)	-15.8%
COc1cc2c(cc1OC)C(COc1ccc3c(C)cc(=O)oc3c1)N(C(=O)c1cc(Cl)ccc1OC)CC2 (configuration not stated)	-16.7%
CCCCCCCC(=O)N[C@H](CN1CCCC1)[C@H](O)c1ccc2c(c1)OCCO2	-7.4%
CN1CCC(Nc2nc(Nc3ccc(Oc4ccccc4)cc3)c3c(=O)[nH]cc(Br)c3n2)CC1	103.3%[activator]
COC(=O)c1ccccc1NC(=O)CSc1n[nH]c(CC(C)C)n1	-15.4%
COc1ccc(Cl)cc1NC(=O)N1CCN(S(=O)(=O)c2ccc3c(ccn3C)c2)CC1	-26.4%
CCOc1ccc(NC(=O)Cn2c(=O)n(CC(=O)NCc3ccccc3Cl)c(=O)c3sccc32)cc1	-13.8%
Cc1cccc(N2CCN(C(=O)CN3C(=O)COc4ccc(S(=O)(=O)N5CCC(C)CC5)cc43)CC2C)c1 (configuration not stated)	3.2%
COc1ccc(-c2noc(CSc3nc(N)cc(=O)[nH]3)n2)cc1	-11.6%
Cc1sc(NC(=O)Cc2ccc3c(c2)OCO3)nc1-c1ccc2c(c1)CCN2C(=O)C1CCCCC1	i
Cc1cc(C)nc(NC(=S)N2CCN(c3nccc(C(F)(F)F)n3)CC2)c1	-16.3%
Cc1ccc(NC(=O)C2CCC(CNS(=O)(=O)c3csc(C(N)=O)c3)CC2)cc1Cl (configuration not stated)	-18.3%
CC[C@H](Nc1ncnc2nc[nH]c12)c1nc2cccc(F)c2c(=O)n1-c1ccccc1	6.9%
CC(O)C1CCC2C3CCC4CC(OC5OC(C(=O)O)C(O)C(O)C5O)CCC4(C)C3CCC12C (configuration not stated)	9.6%
COc1cc2c(cc1O)C1(OC)Cc3ccc4c(c3C1N(C)CC2)OCO4 (configuration not stated)	4.3%
O=C(Nc1ccc(F)c(Cl)c1)C1CCCN(S(=O)(=O)c2cccc3nsnc23)C1 (configuration not stated)	-7.0%
Cc1ccc(OCCn2c(CCNC(=O)C(C)(C)C)nc3ccccc32)cc1	-12.0%
CCC1Oc2ccccc2N(CC(=O)NCCc2ccc(OC)c(OC)c2)C1=O (configuration not stated)	-17.3%
CCN1CCN(CCCNC(=O)Cn2c(-c3cccs3)cc3cc(Cl)ccc32)CC1	33.6%[activator]
COc1ccc(C(CNC(=O)c2oc3ccc(C)cc3c2C)N2CCOCC2)cc1 (configuration not stated)	-0.8%
CC(=O)Nc1ccc(S(=O)(=O)NC2=NCN(C(C)C)CN2)cc1	-7.4%
O=C(COC(=O)CNC(=O)C1CCCCC1)Nc1ccccc1Cl	i
Cn1c(=O)oc2cc(S(=O)(=O)NCCC(=O)Nc3ccc(F)cc3F)ccc21	-15.1%
CCNC(=O)c1ccc2c(c1)sc1nc(-c3cccc(OC)c3)cn12	72.3%[activator]

Continued (5 carried over from the part before).
Structure	nsP2pro primary
COc1ccc(C(CNC(=O)c2oc3ccc(C)cc3c2C)N2CCOCC2)cc1 (configuration not stated)	-0.8%
CC(=O)Nc1ccc(S(=O)(=O)NC2=NCN(C(C)C)CN2)cc1	-7.4%
O=C(COC(=O)CNC(=O)C1CCCCC1)Nc1ccccc1Cl	i
Cn1c(=O)oc2cc(S(=O)(=O)NCCC(=O)Nc3ccc(F)cc3F)ccc21	-15.1%
CCNC(=O)c1ccc2c(c1)sc1nc(-c3cccc(OC)c3)cn12	72.3%[activator]
Cc1ccc(CNC(=O)N2CCC(c3nc(CCOCC4CCOCC4)no3)C2)cc1 (configuration not stated)	-8.4%
FC(F)(F)c1ccccc1-c1nc(NCc2ccc(-c3ccncc3)cc2)c2ccccc2n1	-11.2%
C[C@@H]1[C@H](O)[C@@H](C)/C=C/C=C/CC/C=C/C=C/C=C/C=C/[C@H](O[C@H]2O[C@@H](C)[C@H](O)[C@@H](N)[C@H]2O)C[C@@H]2O[C@](O)(C[C@@H](O)[C@H](O)CC[C@@H](O)C[C@@H](O)C[C@@H](O)CC(=O)O[C@H]1C)C[C@H](O)[C@H]2C(=O)O	-3.1%[10 µM]
CN(C)c1cc2c(cc1NS(=O)(=O)c1ccccc1)n(C)c(=O)n2C	-41.0%
O=S(=O)(O)CC(S)CS (configuration not stated)	186.8%[activator]
CCOc1ccc2c(c1)sc1nc(=O)n(-c3ccc(Cl)c(Cl)c3)c(=O)n12	-28.2%
COc1ccccc1CNC(=O)c1ccc2c(c1)N(Cc1cccc(Cl)c1)C(=O)c1ccccc1S2(=O)=O	-20.0%
Cc1ccc(NC(=O)CN2C(=O)N/C(=C\c3cccn3-c3cccc(C(=O)O)c3)C2=O)cc1	2.4%
COc1ccc(CNC(=O)Cn2ccc3cc(S(=O)(=O)N4CCCCCC4)ccc32)cc1OC	-8.1%
O=C(CCC[C@@H]1[C@H]2CCCN3CCC[C@@H](CN1C(=O)c1ccccc1F)[C@@H]23)N1CCOCC1	-2.2%
Cc1nc(N2CCOCC2)c2nc(-c3ccccc3)n(CCN3CCCC3)c2n1	1.5%
CNC(=O)CN1C(=O)COc2ccc(S(=O)(=O)N3CCC(C)CC3)cc21	-8.5%
CCCn1c(C)nc2c(NCCCN(CC)CC)nc(C)nc21	i
CC(C)=CC/C=C(/C)[C@H]1CC[C@]2(C)[C@@H]1[C@H](O)CC1[C@@]3(C)CC[C@H](O)C(C)(C)[C@@H]3[C@@H](O[C@@H]3O[C@H](CO)[C@@H](O)[C@H](O)[C@H]3O[C@@H]3O[C@@H](C)[C@H](O)[C@@H](O)[C@H]3O)C[C@]12C (some centres not stated)	0.4%[10 µM]
Cc1cc(C)cc(Cn2ncc3c4sc(C)cc4n(C)c3c2=O)c1	-5.6%

Next compounds
smiles	nsP2pro primary
Cc1ccnc(NCc2ccc(O)c3ncccc23)c1	?
C[C@@](Cc1ccccc1)(C(=O)O)N1C(=O)c2ccc(C(=O)O)cc2C1=O	-9.2%
CC(C)(C)OC(=O)N1CCC(c2c(C(=O)N3CCN(C4CCCCC4)CC3)cnn2-c2cccc(Cl)c2)CC1	-14.0%
O=C(CCSCc1cccc(Cl)c1)NCc1ccccc1Cl	4.0%
Cc1ccc(-c2nn(CC(=O)NC3CCCCC3)c3c2cnc2ccccc23)cc1	-14.3%
C[C@]12C=CC(=O)C=C1CC[C@@H]1[C@@H]2[C@@H](O)C[C@@]2(C)[C@H]1CC[C@]2(O)C(=O)COC(=O)c1cccc(S(=O)(=O)O)c1	-3.7%
CC(C)c1cc(C(C)C)c(CC(=O)NS(=O)(=O)Oc2c(C(C)C)cccc2C(C)C)c(C(C)C)c1	2.6%&14.3%
CO[C@@H]1[C@H](C)OC(O[C@H]2CC(Oc3cc4cc5c(c(O)c4c(O)c3C)C(=O)[C@@H](OC3C[C@@H](OC4C[C@H](OC6C[C@](C)(O)[C@@H](OC(C)=O)[C@H](C)O6)[C@@H](O)[C@H](C)O4)[C@H](O)[C@@H](C)O3)[C@H]([C@@H](OC)C(=O)[C@@H](O)[C@H](C)O)C5)O[C@@H](C)[C@H]2OC(C)=O)C[C@@H]1O (some centres not stated)	-11.3%
COc1cccc(C(=O)N2CCCC(COc3ccccc3C(=O)N3CCOCC3)C2)c1 (configuration not stated)	i
COc1cc(O)c(C(CC(=O)N2CCCC(COc3ccc(F)cc3)C2)c2ccc3c(c2)OCO3)c(OC)c1 (configuration not stated)	4.2%[39.2 µM]
COc1cccc(C(=O)Nc2cccc(-c3nc4ncccn4c3C)c2)c1	-0.8%
COc1ccc([C@H]2CN(C(=O)C3(c4ccc(F)cc4)CC3)C[C@@H]2N)cc1	i
Cc1[nH]c2ccccc2c1CC(=O)N[C@@H](Cc1ccccc1)C(=O)N(C)c1ccccc1	?
CC(C)c1nc2ccccc2n1CC(=O)N1CC[C@](C)(O)[C@@H](O)C1	1.6%
COc1ccc(-n2c(=O)c3sc4ccccc4c3n(CC(=O)NC3CCCCC3)c2=O)cc1	-19.4%
O=C(CCc1ccc2c(c1)CNCCO2)NCC1CC1	-13.5%
CCOC(=O)C1CCCN(S(=O)(=O)c2ccc3c(c2)CCN3C(=O)CC)C1 (configuration not stated)	-22.3%
O=c1c2ccc(-c3cn[nH]c3)cc2nc2sc(Nc3ccc4c(c3)CCC4)nn12	i
O=C(/C=C/c1ccc(O)cc1)N[C@@H](Cc1ccc(O)cc1)C(=O)O	94.1%[activator]
CCN(CC)CCCCn1c(-c2ccccc2)nc2c(N3CCOCC3)nc(C)nc21	-4.1%
CCc1ccc(NS(=O)(=O)c2ccc3oc(=O)c4ncn(CC)c4c3c2)cc1	-13.8%
CCc1ccc(-c2cn3c(n2)sc2cc(C(=O)NC4CCCCC4)ccc23)cc1	-14.2%
COc1ccc(CNC(=O)c2cc3cc(C)ccc3n2C)cc1	-20.2%
CCOc1ccc(CCNC(=O)c2ccccn2)cc1OCC	-0.1%
